# Lassa entry inh: Lassa virus entry inhibition; Lassa virus pseudotype entry inhibition, cell reporter; control for the full effect not named in the record; Potency, µM (highest dose often 37.9 µM), without a hit: top-dose activity change, negative = inhibition, actives largely listed as inhibitors; 300,000 compounds, 1.2% hits; active means well fitted inhibition curve with a large enough effect; inconclusive means small, poorly fitted or top-dose-only effect, or effect the other way; inactive means flat fitted curve, though single readings scatter; tested in HEK293 cells; note: % is set by controls: 0 for no effect and ±100 for the full control effect; nearly all actives have a fitted effect of over 50% in size; luciferase read-out
# Cruzain noTriton: inhibitors of Trypanosoma cruzi cruzain without detergent; P25779; Potency, µM, for inactives: max response, negative = inhibition, usual class: inhibitors; purified cruzain, Z-FR-AMC fluorescence, no detergent; AID 1476; 200,000 compounds, 2.3% hits;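 note: plate controls were enzyme without inhibitor for no effect and buffer without enzyme for full effect; nearly all actives have a fitted effect of over 40% in size; top concentration of the series not given in the record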
# Target sequence (P25779 123-467 limits assumed): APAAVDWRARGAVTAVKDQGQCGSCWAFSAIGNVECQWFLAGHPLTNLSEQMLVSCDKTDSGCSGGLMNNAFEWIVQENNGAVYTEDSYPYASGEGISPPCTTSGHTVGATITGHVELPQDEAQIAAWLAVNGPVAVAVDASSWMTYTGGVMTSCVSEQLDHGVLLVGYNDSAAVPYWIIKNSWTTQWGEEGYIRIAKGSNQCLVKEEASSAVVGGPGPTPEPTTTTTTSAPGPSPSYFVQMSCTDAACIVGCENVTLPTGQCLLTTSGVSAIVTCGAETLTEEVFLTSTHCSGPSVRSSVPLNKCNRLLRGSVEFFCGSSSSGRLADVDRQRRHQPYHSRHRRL
#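 Detergent-free condition (0.00005% Triton X-100) in acetate buffer pH 5.5 with DTT. 1.5 nM enzyme and compound were pre-mixed 15 min, then 2 uM Z-FR-AMC substrate added; reaction progress from fluorescence change between first and third reads (60 s).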
# SARS PLP yeast: blocks SARS-CoV papain-like protease in a yeast assay | Potency, µM (top dose mostly 32.9 µM), for inactives: at the top dose activity, positive = growth rescue | AID 485353 | S. cerevisiae expressing SARS-CoV PLpro, growth rescue; control for the full effect not named in the record | 330,000 compounds, 0.19% hits; active means well fitted rising curve with a large enough effect; inconclusive means small, poorly fitted or top-dose-only effect; inactive means no such curve, though single readings can be large or run the other way; note: 0% is about no effect; nearly all actives have a fitted effect of over 55% in size; growth read by luminescence after 48 h
# Cruzain inh Det: blocks cruzain activity in presence of Triton detergent. AID 1478. 200,000 compounds, 0.43% hits. Potency, µM, for the others: max response, negative = inhibition, actives largely listed as inhibitors. P25779. purified cruzain, Z-FR-AMC fluorescence, 0.01% Triton;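 note: plate controls were neutral wells for no effect and buffer without enzyme for full effect; nearly all actives have a fitted effect of over 40% in size; top concentration of the series not given in the record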
#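 Detergent-containing run (0.01% Triton X-100) in acetate buffer pH 5.5 with 5 mM DTT: enzyme at 1.5 nM final, 15 min compound preincubation at room temperature, then 2 uM Z-FR-AMC substrate. Activity taken as 60 s fluorescence increase at 360/450 nm.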
# Marburg entry inh: blocks Marburg virus binding to or entry into cells; Marburg virus pseudotyped entry inhibition, cell reporter; control for the full effect not named in the record; about a third of the inactives were read at about 46 µM; Potency, µM (top dose mostly 37.8 µM), for the others: at the top dose activity change, negative = inhibition, most hits filed as inhibitors; 300,000 compounds, 1.8% hits; AID 540276; active = well fitted inhibition curve with a large enough effect; inconclusive = small, poorly fitted or top-dose-only effect, or effect the other way; inactive = flat fitted curve, though single readings scatter; tested in HEK293 cells; about a fifth of its hits are not listed in these tables; note: % is set by controls: 0 for no effect and ±100 for the full control effect; luciferase read-out
# NS1 inh: blocks influenza NS1 protein function; S. cerevisiae slowed by influenza A NS1, growth recovery by OD600; Potency, µM (doses to about 46.1 µM), without a hit: top-dose activity, positive = more growth; AID 2326; 270,000 compounds, 0.4% hits; active means well fitted rising curve with a large enough effect; inconclusive means small, poorly fitted or top-dose-only effect; inactive means no such curve, though single readings can be large or run the other way; note: nearly all actives have a fitted effect of over 50% in size
#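 A cell-based growth assay was used: compounds that relieve NS1-induced slow growth of budding yeast raise OD600. Assay medium was yeast nitrogen base with ammonium sulphate and -URA supplement, pH 6.0, with 2% galactose.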
# 2A StopGo: FMDV 2A StopGo reporter, luciferase signal; 410,000 compounds, 1.2% hits; human cells with a luciferase reporter of 2A StopGo recoding; control for the full effect not named in the record; AID 1159524; Potency, µM (doses to about 57.9 µM), inactives show top-dose signal change, negative = less light; active = well fitted falling curve with a large enough effect; inconclusive = small, poorly fitted or top-dose-only effect; inactive = no such curve, though single readings can be large or run the other way; tested in HEK293T cells; note: % is set by controls: 0 for no effect and ±100 for the full control effect; nearly all actives have a fitted effect of over 45% in size; luciferase light after 4 h
# RE007 growth inh: less growth of the S. pombe RE007 Vpr strain | Potency, µM (doses to about 92.2 µM), without a hit: at the top dose activity change, negative = less growth | S. pombe RE007 Vpr strain, BacTiter-Glo ATP luminescence, 24 h; control for the full effect not named in the record | 360,000 compounds, 0.21% hits | AID 651644; active = well fitted falling curve with a large enough effect; inconclusive = small, poorly fitted or top-dose-only effect; inactive = no such curve, though single readings can be large or run the other way;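 note: % is set by controls: 0 for no effect and ±100 for the full control effect; nearly all actives have a fitted effect of over 50% in size; the assay follows cell death caused by Vpr and the record does not say whether a fall means rescue or toxicity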
#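 Fission yeast RE007 carrying one integrated HIV-1 vpr copy, seeded at OD 0.01 in PMG+AL medium with 23 nL pinned compound. Grown 24 h at 30 degrees; viability read by BacTiter-Glo luminescence after 5 min.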
# Numbers without * were called inactive; ? = inconclusive; · = not tested or not shown; & = joins results of further samples; ! = repeats disagree; [ ] = dose if it differs, or a comment. Unless noted, calls come from the whole dose curve; as a rule, active = well fitted curve in the direction sought with a large enough effect; inconclusive = small, poorly fitted or top-dose-only effect, or another doubt; inactive = no such curve, though single readings can be large; an effect the other way counts as inactive or inconclusive. Potency is the fitted concentration of half-maximal effect.
# Each structure is followed by: Lassa entry inh	Cruzain noTriton	SARS PLP yeast	Cruzain inh Det	Marburg entry inh	NS1 inh	2A StopGo	RE007 growth inh
CC(C)OCCCn1c(=O)c2ccccc2n2c(-c3ccc(F)cc3)nnc12
    4%[46.1 µM]	1%	·	-4.0%	-16%[46.1 µM]	·	-1%	·
CC(=O)c1c(C)[nH]c(C(=O)N2CC(C)CC(C)C2)c1C (stereo not given)
    ·	·	0%	·	·	2%	48%[activator]	9%
CCOc1ccccc1NC(=O)c1cc(CC(C)C)oc1C
    1%	0%	-17%	-3.8%	-24%	-16%	-1%	-30%
CCC(Sc1ncnc2c1c(-c1ccccc1)cn2-c1ccc(OC)cc1)C(=O)OC (stereo not given)
    ?	3%	15%	-1.9%	?	0%	0%	10%
Cc1ccc(C)n1-c1sc2c(c1C#N)CCCC2
    -9%	-10%	-2%	-4.2%	-8%[46.1 µM]	20%	-22%	-12%
CSc1ncc(Cl)c(C(=O)Nc2nc3ccc(F)cc3s2)n1
    2%[46.1 µM]	9%	·	-1.8%	11%[46.1 µM]	·	-7%	·
O=c1[nH]c2ccc(Cl)cc2c(-c2ccccc2)c1N1CCN(CCO)CC1
    ?	4%	1%	-0.4%	10µM*	-6%	-24%	-24%
OC1/C(=C/c2ccc(C(F)(F)F)cc2)N2CCC1CC2 (stereo not given)
    14%[46.1 µM]	·	0%	·	?	1%	44%[activator]	-9%
O=C(Cn1cnc2c(nnn2-c2ccccc2)c1=O)N1CCCc2ccccc21
    ·	-13%	2%	2.0%	·	-33%	?	3%
O=C(NCCS(=O)(=O)NCCc1ccccc1)c1ccccc1
    11%	·	-1%	·	?	·	54%[activator]	-1%
CC(Oc1ccc2c(-c3ccccc3)cc(=O)oc2c1)C(=O)NCC(O)c1ccccc1 (stereo not given)
    ·	·	-6%	·	·	-9%	-24%	5%
O=C(C/C=N/OCc1ccccc1F)c1cnc(-c2ccc(Cl)cc2)s1
    2%	?	1%	-5.1%	10%	19%	-14%	12%
Cc1cccc(C)c1NC(=O)CCS(=O)(=O)c1ccc2c(c1)CC(C)N2C(=O)C1CC1 (stereo not given)
    -17%[46.1 µM]	5%	·	-2.2%	·	·	-25%	·
COc1ccc(-c2nc(C#N)c(NCc3ccc(C)cc3)o2)cc1OC
    -1%	?	·	3.2%	-10%	-18%	24%	0%
O=C(CSc1nnc(-c2ccccc2O)n1Cc1ccccc1)NNC(=O)c1ccccc1O
    -23%	1%	6.3µM*	-6.1%	-3%	10%	11%	3%
Cc1nn(CC(=O)Nc2cc(S(=O)(=O)N(C)C)ccc2Cl)c(C)c1[N+](=O)[O-]
    7%	-10%	-1%	0.6%	19%	5%	-6%	·
Cc1ccc(NC(=O)c2sc(-n3nc(C)c(CCC(C)C)c3C)nc2C)cc1C
    0%[46.1 µM]	-2%	·	-0.7%	1%[46.1 µM]	·	-17%	·
Clc1ccc2nc3ccccn3c2c1
    22%	7%	-27%	-5.9%	-3%	-195%	24%	5%
COCCCNC(=O)C1CCN(c2ncccn2)CC1
    16%	1%	0%	2.7%	0%	4%	-1%	1%
Cn1cccc1Cc1nnc(SCC(=O)Nc2cccc(F)c2)n1-c1ccc(F)cc1
    -14%	?	-2%	-6.0%	-3%&-3%	-14%	-1%	-13%
O=S1(=O)C=C(SCc2ccc(F)cc2)Nc2ccccc21
    -10%[46.1 µM]	·	0%	·	-11%[46.1 µM]	-6%	8%	9%
O=C(CN1CCN(c2ccccn2)CC1)Nc1nc2ccccc2s1
    ·	·	-7%	·	·	-33%	-14%	-5%
Cc1cc(C(=O)O/N=C(\N)c2ccncc2)ccc1[N+](=O)[O-]
    ·	·	-1%	·	·	3%	71%[activator]	-6%
COc1ccccc1NC(=O)Cc1nnc(SCC(=O)Nc2ccccc2F)n1C
    5%	·	1%	·	9%[46.1 µM]	·	-1%	7%
O=C(O)Cc1cc2c(s1)CCCCC2
    -2%	-11%	-4%	-4.0%	3%[46.1 µM]	-88%	3%	15%
O=C(COc1ccc(Cl)cc1Cl)N(C1CCCCC1)C1CCS(=O)(=O)C1 (stereo not given)
    -14%	·	-7%	·	-26%	·	-13%	19%
Cc1oc(-c2ccc(C(=O)NCCCOC(C)C)cc2)nc1CS(=O)(=O)c1ccccc1
    16%[46.1 µM]	5%	·	-2.1%	·	·	?	·
N#Cc1c(NC(=O)CSc2ncn[nH]2)sc2c1CCCC2
    2.3µM*	16%	-1%	-4.0%	?	-4%	?	-4%
O=C(/C=C/c1ccco1)N1CCN(S(=O)(=O)c2cccc([N+](=O)[O-])c2)CC1
    8%	·	0%	·	7%	·	-27%	8%
CCc1ccccc1NC(=O)Cn1c(=O)oc2ccccc21
    -11%[46.1 µM]	-4%	·	-0.7%	·	·	-18%	·
Cc1ccnc(NC(=O)CCC(=O)N(CC(=O)NCCc2ccccc2)Cc2cccs2)c1
    ·	·	1%	·	·	-11%	21%	1%
CCOc1ccc(NC(=O)C2CCC(C)(C(=O)O)C2(C)C)cc1 (stereo not given)
    -5%	-10%	-2%	1.9%	24%	-4%	11%	38%
COc1ccccc1NS(=O)(=O)c1cc(C(=O)NCC(c2ccc(F)cc2)N2CCOCC2)ccc1C (stereo not given)
    -14%	·	-1%	·	-1%	·	11%	-4%
Cc1c(NC(=O)Nc2cccc(C(F)(F)F)c2)sc2nc3n(c(=O)c12)CCC(C)CC3 (stereo not given)
    ·	-12%	·	0.0%	-1%[46.1 µM]	·	?	·
Cc1ccc(-c2nn(-c3ccccc3)cc2C2CC(c3cccs3)=NN2C(=O)CCC(=O)O)cc1 (stereo not given)
    8%	?	12%	-28%	29%	18%	-14%	0%
CCC1(CC)SC(N)=NC1=O
    16%[46.1 µM]	·	·	·	26%[46.1 µM]	·	-9%	9%
CN(CC1CCCN(CCc2cccc(C(F)(F)F)c2)C1)C(=O)c1ccco1 (stereo not given)
    ·	·	2%	·	·	14%	-23%	5%
CCOc1ccc(NC(=S)N(CCc2c(C)[nH]c3ccc(C)cc23)Cc2ccco2)cc1
    ?	3.2µM*	-5%	2.9%	?	11µM*	-20%	-13%
Cc1[nH]c(=O)c(Cc2ccccc2)c(O)c1C#N
    ?	·	·	·	5%	·	-10%	-18%
CCC(=O)Nc1cccc(C2=NOC3(C2)C[C@@H](C(N)=O)N(C(=O)C2(C)CC2)C3)c1 (stereo not given in full)
    ·	·	0%	·	·	3%	-11%	11%
CCOC(=O)c1c(C)oc2nc(C)nc(NCc3ccc(C)cc3)c12
    ?	-17%	·	-1.0%	·	·	6%	·
O=C(NCC1CCCO1)c1csc(Nc2cccc3ccccc23)n1 (stereo not given)
    ·	·	1%	·	·	-5%	-26%	11%
Cc1cccc(N/N=C/c2ccc(C)s2)c1
    ·	·	-2%	·	·	-6%	62%[activator]	6%
O=C(Nc1cccc(C(F)(F)F)c1)c1c(O)c2ccccc2[nH]c1=O
    ·	·	18%	·	·	20%	-2%	-3%
Cn1nc(C(=O)OCC(=O)Nc2ccc(C(N)=O)cc2)c2ccccc2c1=O
    14%	·	0%	·	-4%	·	-7%	-5%
C/C(=N/NC(=O)CCCOc1ccc(Cl)cc1Cl)c1ccc(C)o1
    24%	4%	-11%	-3.2%	8%	15%	-5%	5%
Cc1oc(-c2ccccc2F)nc1CSCC(=O)NC1CCCC1
    5%[46.1 µM]	·	0%	·	0%[46.1 µM]	-3%	-22%	-2%
Cc1ccccc1CNCc1cccnc1
    -5%	-7%	-8%	2.3%	12%	-3%	-9%	2%
O=C(NCc1c(-n2cccc2)sc2c1CCCC2)Nc1cccc(C(F)(F)F)c1
    23%[46.1 µM]	4%	·	-3.3%	19%[46.1 µM]	·	?	·
Cc1nnc(NC(=O)CSc2nnc(-c3ccccc3)n2C)s1
    9%	·	-1%	·	-6%[46.1 µM]	2%	2%	-8%
FC(F)(F)c1cc(-c2ccccc2)nc2cc(-c3ccccc3)nn12
    ?	-11%	·	1.6%	5%[46.1 µM]	·	24%	·
CC(=O)N1CCN=C1SCc1ccc(Br)cc1
    ·	-2%	3%	-0.3%	·	-14%	-10%	-2%
O=C(Cn1cnc2cc([N+](=O)[O-])ccc2c1=O)Nc1ccc2c(c1)OCO2
    2%[46.1 µM]	·	1%	·	?	5%	-18%	-4%
OCC1(C2=NOC(O)(C(F)(F)F)C2)CCCCC1 (stereo not given)
    -6%	-3%	0%	5.1%	9%	?	9%	5%
CCCOc1ccc(OC(=O)c2sc3ncn(Cc4cccc(F)c4)c(=O)c3c2C)cc1
    30%[46.1 µM]	3%	·	1.2%	·	·	-28%	·
CCOc1ccccc1Nc1nc(-c2sc(NC(=O)c3ccccc3)nc2C)cs1
    ·	13µM*	8%	-3.9%	5%	?	·	·
COc1cc(-c2noc(C3CCCN(S(=O)(=O)c4cccc(Cl)c4)C3)n2)cc(OC)c1OC (stereo not given)
    -11%	?	-1%	-4.0%	9.2µM*!	7%	-10%	-3%

# Record cards, as listed above. Order of values: Lassa entry inh, Cruzain noTriton, SARS PLP yeast, Cruzain inh Det, Marburg entry inh, NS1 inh, 2A StopGo, RE007 growth inh
# Shown for C/C(=N/NC(=O)CCCOc1ccc(Cl)cc1Cl)c1ccc(C)o1 → 24%, 4%, -11%, -3.2%, 8%, 15%, -5%, 5%
# Shown for O=C(NCC1CCCO1)c1csc(Nc2cccc3ccccc23)n1 (stereo not given) → ·, ·, 1%, ·, ·, -5%, -26%, 11%
# Shown for Cn1nc(C(=O)OCC(=O)Nc2ccc(C(N)=O)cc2)c2ccccc2c1=O → 14%, ·, 0%, ·, -4%, ·, -7%, -5%

# Source: PubChem BioAssay
